UUG fidelity: modulators of yeast start codon fidelity, primary screen, whole organism, S. cerevisiae, single point, plate reader | activity score, % at 18.7 µM | S. cerevisiae UUG-firefly luciferase reporter, luminescence/redox ratio | 350,000 compounds, 0.13% hits;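 active = replicate mean at a twofold rise or more, about +100% in these data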;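 also: firefly luciferase made from a UUG start codon reports start codon fidelity; reporter light over untreated wells divided by growth signal over untreated wells; some hits fall short of that in this replicate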
HIV Env fusion: inhibitors of HIV-1 Env-driven cell-cell fusion, primary screen, HeLa-JRFL effector, CEM21 target cells, luciferase; inhibition, % at 12.3 µM; 360,000 compounds, 1.1% hits;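 active = mean replicate inhibition score of at least 50 and every replicate individually at or above 50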;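 also: 0% = plate neutral controls and 100% = maraviroc near 300 nM; one replicate is shown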
* hit, by the source's call; [ ] = another dose, or the depositor's remark.

SMILES	UUG fidelity	HIV Env fusion
COc1ccc(S(=O)(=O)Nc2ccc3c(c2)C(=O)N([C@H](C)CO)C[C@@H](C)[C@@H](CN(C)Cc2ccc4c(c2)OCO4)OCCCC[C@@H](C)O3)cc1	16	25[16.7 µM]
CN(C)C(=O)C[C@H]1C[C@H]2c3cc(NC(=O)Nc4ccccc4F)ccc3O[C@H]2[C@@H](CO)O1	-7	2[16.7 µM]
O=C(C[C@@H]1CC[C@H](NC(=O)c2ccccn2)[C@@H](CO)O1)NCc1cc(F)cc(F)c1	-2	2[16.7 µM]
C[C@H](CO)N1C[C@H](C)[C@H](CN(C)S(=O)(=O)c2cn(C)cn2)Oc2cc(C#Cc3ccc(F)cc3)ccc2S1(=O)=O	-8	-14[16.7 µM]
Cc1ccc(S(=O)(=O)N(C)C[C@@H]2Oc3ccc(NS(=O)(=O)c4ccc(F)cc4)cc3CC(=O)N([C@H](C)CO)C[C@H]2C)cc1	6	-6[16.7 µM]
O=C(Cc1ccccc1)N[C@H]1C=C[C@@H](CC(=O)N2CCOCC2)O[C@H]1CO	14	2[16.7 µM]
O=C(C[C@H]1C[C@@H]2c3cc(NC(=O)Nc4ccccc4)ccc3O[C@@H]2[C@@H](CO)O1)NCc1ccncc1	-4	-9[16.7 µM]
C[C@H](CO)N1C[C@H](C)[C@@H](CN(C)Cc2ccccc2)Oc2ccc(N(C)C)cc2C1=O	-20	10[16.7 µM]
CC(C)NC(=O)Nc1ccc2c(c1)C(=O)N(C)[C@H]1CC[C@H](CC(=O)NCC(F)(F)F)O[C@@H]1CO2	3	-30[16.7 µM]
O=C(C[C@H]1C[C@H]2c3cc(NC(=O)C4CCC4)ccc3O[C@H]2[C@H](CO)O1)NCc1ccc2c(c1)OCO2	-5	81*[16.7 µM]
C[C@H]1CCCCO[C@@H](CN(C)Cc2ccc(C(=O)O)cc2)[C@@H](C)CN([C@@H](C)CO)C(=O)c2cc(NC(=O)Nc3ccc4c(c3)OCO4)ccc2O1	-2	2[16.7 µM]
C[C@@H]1CCCCO[C@@H](CN(C)S(=O)(=O)c2ccc(F)cc2)[C@H](C)CN([C@@H](C)CO)C(=O)c2cc(NC(=O)c3ccncc3)ccc2O1	-8	-2[16.7 µM]
C[C@@H]1CN([C@H](C)CO)S(=O)(=O)c2ccc(C#Cc3cccc(F)c3)cc2O[C@H]1CN(C)C(=O)NC1CCCCC1	-2	-7[16.7 µM]
C[C@@H]1CN([C@@H](C)CO)S(=O)(=O)c2ccc(/C=C/c3ccccc3)cc2O[C@@H]1CN(C)C	4	2[16.7 µM]
C[C@@H]1CN([C@@H](C)CO)C(=O)c2cc(C#CC(C)(C)O)cnc2O[C@H]1CN(C)Cc1ccccn1	12	-27[16.7 µM]
C/C=C/c1ccc2c(c1)O[C@H](CN(C)S(C)(=O)=O)[C@@H](C)CN([C@@H](C)CO)S2(=O)=O	7	15[16.7 µM]
C[C@@H]1CN([C@@H](C)CO)C(=O)c2cc(-c3ccc(C#N)cc3)cnc2O[C@H]1CN(C)Cc1cccnc1	-1	1[16.7 µM]
COc1ccc(NC(=O)N(C)C[C@@H]2Oc3c(NC(=O)c4nc5ccccc5s4)cccc3C(=O)N([C@@H](C)CO)C[C@@H]2C)cc1	-1	3[16.7 µM]
C[C@H](O)C#Cc1ccc2c(c1)O[C@H](CN(C)Cc1cncnc1)[C@@H](C)CN([C@@H](C)CO)S2(=O)=O	0	-17[16.7 µM]
C[C@@H]1CCCCO[C@@H](CN(C)C(=O)CCC(F)(F)F)[C@@H](C)CN([C@@H](C)CO)C(=O)c2cc(NC(=O)c3ccccc3)ccc2O1	50	-33[16.7 µM]
O=C(C[C@@H]1C=C[C@H](NC(=O)C2CCC2)[C@H](CO)O1)NCCCN1CCOCC1	-16	1[16.7 µM]
C[C@@H]1CN([C@@H](C)CO)C(=O)Cc2cc(NC(=O)CCC(F)(F)F)ccc2O[C@H]1CN(C)Cc1ccc2c(c1)OCO2	-9	9[16.7 µM]
C[C@H]1CN([C@@H](C)CO)C(=O)c2cc(C3=CCCCC3)cnc2O[C@@H]1CN(C)C(=O)NC1CCCC1	1	11[16.7 µM]
Cc1ccc(S(=O)(=O)Nc2ccc3c(c2)C(=O)N([C@H](C)CO)C[C@@H](C)[C@@H](CN(C)S(=O)(=O)c2ccc(F)cc2)OCCCC[C@@H](C)O3)cc1	5	13[16.7 µM]
C[C@@H]1CN([C@H](C)CO)C(=O)c2cc(NC(=O)c3ccccc3)ccc2O[C@@H](C)CCCCO[C@H]1CN(C)S(=O)(=O)c1cccs1	-1	19[16.7 µM]
COCC(=O)N1C[C@H](C)[C@@H](OC)CN(C)C(=O)c2ccc(NC(=O)Nc3ccccc3)cc2OC[C@H]1C	20	8[16.7 µM]
Cc1noc(C)c1NC(=O)Nc1ccc2c(c1)C(=O)N([C@@H](C)CO)C[C@H](C)[C@H](CN(C)Cc1ccccc1)OCCCC[C@H](C)O2	1	-5[16.7 µM]
C[C@H]1CCCCO[C@H](CN(C)C(=O)Nc2ccc(C(F)(F)F)cc2)[C@@H](C)CN([C@@H](C)CO)C(=O)c2cc(N(C)C)ccc2O1	2	-9[16.7 µM]
C[C@@H]1CN([C@@H](C)CO)S(=O)(=O)c2ccc(-c3ccccc3)cc2O[C@H]1CN(C)Cc1cncnc1	-1	13[16.7 µM]
Cc1ccc(S(=O)(=O)N(C)C[C@H]2OCCCC[C@@H](C)Oc3ccc(NC(=O)CCCN(C)C)cc3C(=O)N([C@@H](C)CO)C[C@H]2C)cc1	9	22[16.7 µM]
C[C@@H](O)C#Cc1ccc2c(c1)O[C@H](CN(C)C(=O)Cc1ccccn1)[C@@H](C)CN([C@@H](C)CO)S2(=O)=O	2	15[16.7 µM]
O=C(C[C@H]1CC[C@@H](NC(=O)Nc2cc(F)ccc2F)[C@H](CO)O1)Nc1ccc(-c2ccccc2)cc1	-12	11[16.7 µM]
O=C(Nc1cccc2cccnc12)c1csc([C@@H]2O[C@H](CO)[C@H](O)[C@H](O)[C@H]2O)n1	-22	-17
O=C(N[C@@H]1CC[C@@H](CCn2cc(C3(O)CCCC3)nn2)O[C@@H]1CO)C1CCC1	-9	5[16.7 µM]
Cc1noc(C)c1NC(=O)Nc1cccc2c1O[C@@H](CN(C)C(=O)Nc1ccc(F)cc1)[C@H](C)CN([C@@H](C)CO)C2=O	13	-11[16.7 µM]
O=C(Nc1cc(F)ccc1F)N[C@H]1CC[C@@H](CCn2cc(C3CCCCC3)nn2)O[C@@H]1CO	17	15[16.7 µM]
C[C@@H]1CN([C@@H](C)CO)C(=O)c2cc(NC(=O)Nc3ccccc3)ccc2O[C@H]1CN(C)S(=O)(=O)c1cccs1	11	30[16.7 µM]
CCCN(C)C[C@H]1Oc2cc(C#Cc3ccccc3)ccc2S(=O)(=O)N([C@@H](C)CO)C[C@H]1C	11	-63[16.7 µM]
COCc1cn(CC[C@H]2CC[C@H](NC(=O)Cc3cccnc3)[C@H](CO)O2)nn1	-14	9[16.7 µM]
C[C@@H]1CCCCO[C@@H](CN(C)Cc2ccc3c(c2)OCO3)[C@@H](C)CN([C@@H](C)CO)C(=O)c2cc(NC(=O)c3ccccc3)ccc2O1	8	-2[16.7 µM]
COc1ccc(NC(=O)Nc2ccc3c(c2)C(=O)N([C@@H](C)CO)C[C@@H](C)[C@@H](CN(C)C(=O)Nc2cccc4ccccc24)OCCCC[C@H](C)O3)cc1	10	12[16.7 µM]
C[C@H](CO)N1C[C@H](C)[C@H](CN(C)C)Oc2cc(-c3ccncc3)ccc2S1(=O)=O	-11	12[16.7 µM]
CN(C)C(=O)C[C@H]1CC[C@H](NC(=O)C2CCC2)[C@H](CO)O1	8	-33[16.7 µM]
CC(=O)N(C)C[C@H]1Oc2ncc(C#C[C@@H](C)O)cc2C(=O)N([C@@H](C)CO)C[C@@H]1C	-2	5[16.7 µM]
COc1ccc(S(=O)(=O)Nc2ccc3c(c2)CC(=O)N([C@@H](C)CO)C[C@H](C)[C@H](CN(C)S(C)(=O)=O)O3)cc1	-6	-2[16.7 µM]
COc1ccc(C(=O)Nc2ccc3c(c2)OC[C@H](C)N(C)C[C@@H](C)[C@H](OC)CN(C)C3=O)cc1	6	-9[16.7 µM]
O=C(N[C@H]1CC[C@H](CCNS(=O)(=O)c2ccccc2Cl)O[C@H]1CO)c1ccc(F)cc1	6	-12[16.7 µM]
O=C(C[C@H]1C=C[C@@H](NC(=O)c2ccccn2)[C@H](CO)O1)NCc1cccc(F)c1	-6	-5[16.7 µM]
CNC[C@@H]1Oc2cc(C#Cc3cccc(F)c3)ccc2S(=O)(=O)N([C@H](C)CO)C[C@H]1C	-2	4[16.7 µM]
Cc1ccc(S(=O)(=O)Nc2ccc3c(c2)C(=O)N([C@H](C)CO)C[C@H](C)[C@@H](CN(C)S(C)(=O)=O)O3)cc1	-11	25[16.7 µM]
Remaining list, next part
SMILES	UUG fidelity	HIV Env fusion
CCCC#Cc1ccc2c(c1)O[C@H](CN(C)C(=O)c1ccccc1F)[C@@H](C)CN([C@H](C)CO)S2(=O)=O	14	-6[16.7 µM]
CCCNC(=O)N[C@H]1CC[C@@H](CC(=O)NC2CCC2)O[C@@H]1CO	-3	10[16.7 µM]
CC(C)NC(=O)Nc1ccc2c(c1)C(=O)N([C@@H](C)CO)C[C@@H](C)[C@H](CN(C)S(=O)(=O)c1cccs1)OCCCC[C@H](C)O2	3	9[16.7 µM]
CN1C(=O)c2cc(NC(=O)c3ccc(F)cc3)ccc2OC[C@@H]2O[C@H](CC(=O)N3CCOCC3)CC[C@@H]21	17	20[16.7 µM]
C[C@H](CO)N1C[C@H](C)[C@@H](CN(C)C(=O)Nc2cccc3ccccc23)Oc2c(NC(=O)C3CCOCC3)cccc2C1=O	4	6[16.7 µM]
O=C(C[C@@H]1C[C@@H]2c3cc(NC(=O)CC4CC4)ccc3O[C@@H]2[C@@H](CO)O1)NCc1ccc(-c2ccccc2)cc1	-14	44[16.7 µM]
C[C@@H]1CN([C@@H](C)CO)S(=O)(=O)c2ccc(-c3ccccc3)cc2O[C@@H]1CN(C)C(=O)C1CCCCC1	2	32[16.7 µM]
COc1ccccc1CNC(=O)C[C@H]1CC[C@@H](NC(=O)CN(C)C)[C@H](CO)O1	-17	0[16.7 µM]
C[C@H](CO)N1C[C@H](C)[C@H](CN(C)Cc2ccccn2)Oc2ncc(-c3ccc(C#N)cc3)cc2C1=O	-32	-28[16.7 µM]
C[C@H]1CN([C@@H](C)CO)S(=O)(=O)c2ccc(C#CC(C)(C)O)cc2O[C@H]1CN(C)C	-4	-6[16.7 µM]
CO[C@@H]1CN(C)C(=O)c2cc(NC(=O)C3CCOCC3)ccc2OC[C@H](C)N(C)C[C@H]1C	-6	1[16.7 µM]
C[C@H]1CN([C@@H](C)CO)C(=O)c2cc(C#CC3CC3)cnc2O[C@@H]1CN(C)C(=O)Nc1ccc(F)cc1	9	-15[16.7 µM]
CN(C)CCCNC(=O)C[C@H]1CC[C@@H]2[C@H](COC[C@@H](O)CN2CC2CCCC2)O1	-3	0[16.7 µM]
CCCNC(=O)C[C@H]1C[C@H]2c3cc(NS(=O)(=O)c4ccccc4)ccc3O[C@H]2[C@H](CO)O1	-3	24[16.7 µM]
O=C(Nc1ccc2c(c1)OCO2)N[C@H]1CC[C@H](CCNC(=O)C2CCOCC2)O[C@H]1CO	7	-16[16.7 µM]
C[C@H]1CN([C@@H](C)CO)S(=O)(=O)c2ccc(-c3cccnc3)cc2O[C@H]1CN(C)C(=O)C1CCCCC1	1	38[16.7 µM]
CNC[C@@H]1Oc2c(N)cccc2C(=O)N([C@@H](C)CO)C[C@H]1C	-2	8[16.7 µM]
C[C@H](CO)N1C[C@H](C)[C@H](CN(C)C(=O)Nc2ccc(C(F)(F)F)cc2)Oc2ccc(NC(=O)CCC(F)(F)F)cc2CC1=O	0	-15[16.7 µM]
CC(=O)N(C)C[C@@H]1Oc2cc(-c3cccnc3)ccc2S(=O)(=O)N([C@H](C)CO)C[C@H]1C	-16	28[16.7 µM]
COc1ccc(S(=O)(=O)N[C@H]2C=C[C@@H](CC(=O)NCCc3ccccc3)O[C@@H]2CO)cc1	0	-11[16.7 µM]
C[C@H](CO)N1C[C@H](C)[C@H](CN(C)C(=O)Nc2ccccc2)Oc2ccc(NC(=O)Cc3cn(C)c4ccccc34)cc2CC1=O	61	-10[16.7 µM]

Screening data deposited in PubChem by Broad Institute.

Not all compounds are listed; rates above refer to the full screens.
